Screening results as filed in PubChem BioAssay.
KCNQ2 pot: potentiators of rat KCNQ2 potassium channel. Potassium voltage-gated channel subfamily KQT member 2 (Rattus norvegicus), O88943. CHO-K1 KCNQ2, FluxOR thallium flux fluorescence; stronger effect = higher value. B-score at 10 µM. 310,000 compounds, 0.54% hits. AID 2239, 2010;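 active means fluorescence ratio B-score at least 3 SD of library B-scores, with initial fluorescence B-score within 3 SD, cut at about 5.3 in these data; same plate scores as AID 2156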;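 further: B-score of peak minus minimum over baseline fluorescence ratio after K+ and Tl+ stimulus; positive B-score means potentiation of KCNQ2 with more thallium influx and brighter signal; only the inactives scoring about 0 or higher are listed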
Target sequence (O88943 whole entry, looked up): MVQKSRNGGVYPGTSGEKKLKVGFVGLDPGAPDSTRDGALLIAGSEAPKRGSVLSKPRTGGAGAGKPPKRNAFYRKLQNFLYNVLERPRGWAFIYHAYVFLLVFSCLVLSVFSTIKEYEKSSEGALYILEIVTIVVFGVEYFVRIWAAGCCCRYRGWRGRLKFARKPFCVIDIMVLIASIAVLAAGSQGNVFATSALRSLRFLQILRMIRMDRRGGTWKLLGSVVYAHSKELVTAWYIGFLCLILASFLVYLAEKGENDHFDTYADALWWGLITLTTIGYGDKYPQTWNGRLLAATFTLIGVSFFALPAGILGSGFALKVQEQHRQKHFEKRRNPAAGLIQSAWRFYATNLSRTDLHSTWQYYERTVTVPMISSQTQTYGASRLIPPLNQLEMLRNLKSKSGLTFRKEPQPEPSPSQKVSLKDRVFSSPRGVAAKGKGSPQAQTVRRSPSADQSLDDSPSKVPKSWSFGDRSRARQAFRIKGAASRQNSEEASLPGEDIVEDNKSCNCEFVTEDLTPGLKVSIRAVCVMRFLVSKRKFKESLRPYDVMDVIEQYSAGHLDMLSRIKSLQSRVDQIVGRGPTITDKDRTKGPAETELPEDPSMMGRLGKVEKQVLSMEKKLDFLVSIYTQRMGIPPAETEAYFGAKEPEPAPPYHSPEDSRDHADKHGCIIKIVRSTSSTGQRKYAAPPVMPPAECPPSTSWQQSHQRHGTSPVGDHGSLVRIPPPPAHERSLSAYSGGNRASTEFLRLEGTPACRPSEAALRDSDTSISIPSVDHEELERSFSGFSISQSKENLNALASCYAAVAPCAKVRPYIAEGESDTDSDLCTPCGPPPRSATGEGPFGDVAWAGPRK
KCNQ2 pot baseline: second read-out of KCNQ2 pot, no call of its own (marks repeat the call); B-score; compound at 10 µM; measured here: initial fluorescence intensity artifact check;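 brightness before thallium and not channel activity; 0 = typical well and far values either way flag optical interference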
Starred values were filed as active, the others as inactive. Only part of the results is shown; rates above refer to the full screens.

KCNQ2 pot	KCNQ2 pot baseline	SMILES
0.56	0.71	O=c1cc(Cl)[nH]n(-c2ccccc2)c1=O
0.04	-0.69	Cc1onc(-c2ccccc2)c1C(=O)N/N=C/c1cc2c(cc1Cl)OCO2
0.05	2.8	CC(C)CNC(=O)CN1c2cccc3cccc(c23)S1(=O)=O
1	0.89	CCc1c(C)sc(NC(=O)c2ccoc2C)c1C(N)=O
0.43	-0.22	COc1ccc(/C=N/N=C/c2ccc(OC)c(OC)c2)cc1OC
0.22	-2.01	COc1ccccc1OCc1ccc(C(=O)N2CCN3CCCC3C2)cc1 (centres undefined)
0.65	-0.25	CN(Cc1ccccc1)S(=O)(=O)c1ccc2c(c1)n(C)c(=O)n2C
1.07	0.01	CCN(CC)C(=O)C1=C(C)NC(=O)NC1c1ccccc1F (centres undefined)
0.86	0.67	Cc1cc(C)c(C#N)c(OCC(=O)c2ccccc2)n1
0.03	6.81	CCOc1cc(NC(=S)NCC(C)C)c(OCC)cc1NC(=O)c1ccco1
0.18	1.19	Cc1ccc(NC(=O)CN(C)C(=O)c2ccc(C(F)(F)F)cc2)cc1
0.03	0.14	CN(C)/C=C/C(=O)c1ccccc1

The list goes on.
KCNQ2 pot	KCNQ2 pot baseline	SMILES
1.45	-2.08	O=Cc1cccn1Cc1ccc(Cl)cc1Cl
0.3	0.8	N#C/C(=C\c1c[nH]c2ccc(Br)cc12)c1ccccn1
0.14	0.81	O=C1CCC(C(=O)OCc2nnc(-c3ccccc3)o2)=NN1
2.89	-0.33	Cc1nnc(NC(=O)CSc2ccc(-c3ccccn3)nn2)s1
0.61	-1.18	Cc1ccc(S(=O)(=O)CC(=O)NCc2ccccc2)cc1
0.14	0.8	CS(=O)(=O)Nc1ccc(-c2nnc3n2CCCCC3)cc1
0.84	-0.33	COc1ccc(-c2c(C#N)c(N)nc3c2CCc2ccccc2-3)cc1OC
0.17	0.02	O=C(O)CNC(=O)CCn1nnc2ccccc2c1=O
0.4	-0.22	O=C(NCc1ccncc1)Nc1cc(Cl)ccc1Cl
0.6	-2.09	OC(c1ccc(Cl)cc1)c1nnc(-c2ccccc2)o1 (centres undefined)
0.88	1.42	C=CCNCCCCOc1cccc(Br)c1
1.26	0.58	O=C1CN(C(=S)NC(=O)c2ccccc2[N+](=O)[O-])CCN1

Other results:
KCNQ2 pot	KCNQ2 pot baseline	SMILES
0.62	-0.77	CCN(CC)CCNC(=O)C1CCN(S(=O)(=O)N2CCCCC2)CC1
1.62	-0.11	COc1ccc(-c2csc(NCc3ccco3)n2)cc1
1.69	-0.98	Cc1cc(-c2ccc(C)c(S(=O)(=O)NCCCN3CCN(c4ccccc4F)CC3)c2)on1
1.2	1.03	O=C(NCc1cccnc1)Nc1ccc(Br)cc1Cl
3.62	-0.29	Cc1ccc(NC(=O)CNCc2cccs2)cc1Br
0.73	1.39	COc1cccc(CNC(=O)CN2c3cccc4cccc(c34)S2(=O)=O)c1
0.9	-0.05	CCN(CC)CCNC(=O)c1ccc2c(=O)n(C3CCCC3)c(=S)[nH]c2c1
0.11	0.5	ClCc1ncc(-c2ccc(Cl)cc2)o1
0.32	-1.46	CCCCCN(C(=O)NC(=O)Nc1nncs1)S(C)(=O)=O
0.59	-1.35	COc1ccc(-c2nnnn2C)cc1S(=O)(=O)NCCc1ccccc1
0.01	1.29	CCN(CC)CCCNC(=O)c1cc2c(-c3cccc(OC)c3)nn(C)c2s1
1.04	0.91	COCCC(=O)N1CCC(Oc2ccc(C(=O)NC3CCCCC3)cc2)CC1

Molecules listed so far containing fluorine:
KCNQ2 pot	KCNQ2 pot baseline	SMILES
1.07	0.01	CCN(CC)C(=O)C1=C(C)NC(=O)NC1c1ccccc1F (centres undefined)
0.18	1.19	Cc1ccc(NC(=O)CN(C)C(=O)c2ccc(C(F)(F)F)cc2)cc1
1.69	-0.98	Cc1cc(-c2ccc(C)c(S(=O)(=O)NCCCN3CCN(c4ccccc4F)CC3)c2)on1

Other compounds
KCNQ2 pot	KCNQ2 pot baseline	SMILES
0.82	0.59	O=C(NCc1ccc(F)cc1)c1cccc2c1C(=O)N(Cc1cccnc1)C2
0.02	-0.88	COc1ccccc1OCCC(=O)OCC(=O)NC(=O)NC(C)(C)C
0.58	-0.28	CCOc1ccc(NC(=O)N(CCN(C)C)C(C)c2ccncc2)cc1 (centres undefined)
1.48	0.89	COc1ccc(S(=O)(=O)Nc2c(C)n(C)n(-c3ccccc3)c2=O)cc1Br
0.64	0.04	CCOc1ccc(N(CC(=O)Nc2ccccc2F)S(=O)(=O)c2c(C)[nH]c(=O)[nH]c2=O)cc1
0.38	-1.2	Cc1ccc(NC(=O)CCN2CCN(C)CC2)cc1
0.14	0.07	Cc1nc(-c2ccncc2)nc(NCCNc2ccc(C(F)(F)F)cn2)c1Cl
2.58	0.67	Cc1ccccc1-n1c(-c2ccc(Cl)cc2)cnc1SCC(=O)NC1CCS(=O)(=O)C1 (centres undefined)
0.45	-1.39	CS(=O)(=O)N1CCC(C(=O)N2CCN(c3cccc(Cl)c3)CC2)CC1
0.39	-0.13	Cc1ccc(S(=O)(=O)NCCc2cccs2)cc1
0.22	1.14	CCCCCc1cc(O)c2c(C)cc(=O)oc2c1
0.35	0.05	O=C1CCCN1CCCNC(=S)Nc1cccc2ccccc12

The listing continues:
KCNQ2 pot	KCNQ2 pot baseline	SMILES
1.47	-0.35	Cc1csc(NC(=O)CSc2nnc(NC(=O)COc3ccccc3)s2)n1
0.67	-0.8	COc1cccc(NC(=O)CCC2CCN(C(=O)c3scnc3C)CC2)c1
0.03	-0.9	COc1ccc(Br)cc1CN1CCN(S(=O)(=O)Cc2ccccc2)CC1
0.23	0.19	COc1ccc(CNCc2ccc(C(F)(F)F)cc2)cc1OC
0.53	0.19	CCCn1c2c(c(O)c(C(=O)Nc3nc(C)cs3)c1=O)CCCC2
1.3	0.92	CCc1nc(NCC2CCCO2)c(C#N)c2c1COC(C)(C)C2 (centres undefined)
1.37	-1.44	Cc1ccnc(NS(=O)(=O)c2ccc(NC(=O)C3CCCO3)cc2)n1 (centres undefined)
0.07	0.47	COc1cc2c(cc1OC)CN(C(=O)CSc1nc(N)c(C#N)cc1C#N)CC2
1.78	1.95	COC(=O)C1Cc2ccccc2CN1C(=O)CCl (centres undefined)
0.03	0.85	CCN1C(=O)[C@H]2[C@@H](c3ccc(C)cc3)N3C(=O)N(c4ccc(OC)cc4)C(=O)[C@@]3(C)[C@H]2C1=O
0.47	-0.81	CC1=[N+]([O-])C(N2CCOCC2)C(O)(c2ccccc2)C1 (centres undefined)
0.24	-0.54	N#Cc1ccc(-c2ccc(F)cc2)nc1Oc1ccc(Cl)c(Cl)c1

(continued)
KCNQ2 pot	KCNQ2 pot baseline	SMILES
1.38	1.14	COc1cc(/C=C/C(=O)NC(C)CCc2ccccc2)cc(OC)c1OC (centres undefined)
2.92	1.37	O=C(COC(=O)c1cccnc1Cl)Nc1cccc(S(=O)(=O)N2CCCCC2)c1
0.17	-0.07	CCN(CCO)C(=O)c1ccc2nc(Cc3ccc(OC)cc3)oc2c1
0.68	-0.49	COC(=O)C(Cc1cnc[nH]1)NC(=O)C1CCC(=O)N1 (centres undefined)
1.39	-0.63	CCc1noc(C)c1C(=O)Nc1ccc(S(=O)(=O)N2CCCCC2)cc1
1.79	0.45	CN(C1(C)CCS(=O)(=O)C1)S(=O)(=O)c1ccc2ccccc2c1 (centres undefined)
7.69*	0.04*	COC(=O)c1cccnc1NC(=S)NC1CCCCC1
1.42	-1.54	Cc1nc2ccccc2c(=O)n1/N=C/c1ccncc1
0.52	-0.61	COc1ccc(C(=O)NCC(=O)N2CCNC(=O)C2)cc1OC
1.32	0.48	O=C(c1cc(COc2ccc(F)cc2Cl)on1)N1CCN(c2cnccn2)CC1
0.06	1.84	O=C(CSCc1ccc(Cl)cc1)Nc1cccc(C(=O)Nc2ccccc2C(=O)O)c1
0.11	-0.07	CC(C)C(=O)Nc1ncc(Cc2cccc(Cl)c2)s1

Other results
KCNQ2 pot	KCNQ2 pot baseline	SMILES
0.07	-0.1	O=C1Cc2ccccc2Sc2ccc(O)cc21
1.34	1.03	COc1ccc(OCc2cc(/C=N\NC(=O)c3ccccc3)ccc2OC)cc1
1.55	-0.28	O=C(c1ccc(COc2ccc(Br)cc2)o1)N1N=C(C(F)F)CC1(O)C(F)F (centres undefined)
1.5	0.09	O=C(NCC1CCCO1)C(c1cccnc1)N(C(=O)Cc1cccs1)c1cccnc1 (centres undefined)
0.44	0.78	COC(=O)c1ccc(NC(=O)c2ccccc2N(C)S(=O)(=O)c2ccccc2)cc1
1.42	1.16	COCCN(C(=S)Nc1ccc(OC)cc1)C(C)c1cccs1 (centres undefined)
0.51	-0.13	Cc1sc(NC(=O)CSc2nnc(COc3ccccc3)n2C)c(C#N)c1C
0.45	-1.69	COc1cc(-c2nc3cnccn3c2Nc2ccccc2)ccc1O
0.93	0.54	NC(=O)c1ccc(N2CCCCC2)c(N2C(=O)CCC2=O)c1
0.08	-0.04	COc1ccc(N=C2NC(=O)/C(=C/c3ccco3)S2)cc1
0.51	1.35	CCOC(=O)NC(=O)COC(=O)CCCSc1nc2ccccc2s1
1.4	0.2	COc1ccc(S(=O)(=O)N2CCN(c3ccccc3)CC2)cc1C(=O)N1CCCC1

(continued)
KCNQ2 pot	KCNQ2 pot baseline	SMILES
0.51	1.14	CCc1ccc2[nH]cc(C(=O)OCCOC)c(=O)c2c1
0.11	-0.95	CCOC(=O)N1CCN(C(=S)NC(=O)c2ccc(Br)cc2)CC1
0.04	-1.53	Cc1ccc(NC(=O)Nc2cccn(Cc3c(F)cccc3Cl)c2=O)cc1
0.4	0.45	COC(=O)C1=C(Nc2ccccc2NC(=O)c2ccccc2C(=O)O)CSC1
0.03	-0.49	CCOP(=O)(/C(C#N)=C(\C)O)c1ccccc1 (centres undefined)
0.15	2.35	COc1ccc(-c2noc(CCCC(=O)NCCc3ccccc3)n2)cc1OC
0.55	-0.38	CC(=O)Nc1ccc(N=Nc2ccccc2)cc1
0.08	0.78	CCN(CC)C(=O)Cn1nnc(-c2ccc(S(C)(=O)=O)cc2)n1
0.13	-1.31	COc1ccc(N(CC(=O)NC2CCCC2)S(=O)(=O)c2c(C)[nH]c(=O)[nH]c2=O)cc1
0.6	-1.66	CN(C(=O)Nc1ccc(S(=O)(=O)N(C)C)cc1)C1CCCCC1
0.37	-0.97	COC(=O)c1sccc1NC(=S)N1CCC(C(N)=O)CC1
0.86	0.92	Cc1ccc(-c2nn(-c3ccccc3)cc2CN(Cc2ccccc2)C(=O)CCC(=O)O)o1

Next part:
KCNQ2 pot	KCNQ2 pot baseline	SMILES
0.02	-0.27	O=C1Nc2cc(Br)ccc2C1(O)c1ccccc1O (centres undefined)
0.01	-0.26	Cc1c(NC(=O)CSc2nc(-c3ccco3)cc(C(F)(F)F)n2)c(=O)n(-c2ccccc2)n1C
0.38	0.23	COCCCn1c2nc3ccccc3nc2c2c(=O)n(Cc3ccc(Cl)cc3)cnc21
0.01	-0.18	FC(F)(F)C1=CC(c2ccc(Cl)cc2)=NCCN1
0.72	-1.05	CCOC(=O)CSc1nc(C)cc(C)c1C#N
0.07	0.17	COc1ccc(S(=O)(=O)N(CCCN2CCCC2=O)Cc2cc3c(C)ccc(C)c3[nH]c2=O)cc1
1.1	-0.58	CCOC(=O)Cc1csc(NC(=O)Nc2ccccc2)n1
1.14	2.3	Cc1ccc(NC(=O)Nc2ccc3c(c2)nc(C)n3C)cc1
1.03	1.68	O=C(c1ccc(Cl)cc1Cl)N1CCC(C(=O)N2CCOCC2)CC1
0.22	1.43	O=C(/C=C/c1ccccc1)NC(=S)Nc1ccc(N2CCOCC2)cc1
0.01	-1.97	CCC(=O)N1CCCC(C(=O)c2ccc(-c3ccccc3)cc2)C1 (centres undefined)
0.69	-0.33	O=C(NCc1cccnc1)c1cc(-c2ccc(Cl)cc2)oc1C(F)(F)F

(listing goes on)
KCNQ2 pot	KCNQ2 pot baseline	SMILES
0.05	0.64	Cc1cc(=O)c(C(=O)O)nn1-c1ccccc1F
0.07	0.91	Cc1ccc(C(=O)OCC(=O)NCc2ccco2)cc1S(=O)(=O)N1CCOCC1
1.01	-0.34	Cc1nc(-c2coc3cc(C)c(N=O)c(O)c3/c2=N\N)cs1
0.27	0.74	CCN(CC)S(=O)(=O)c1ccc(S(=O)(=O)N2CCCC(C(=O)NC3CC3)C2)cc1 (centres undefined)
0.77	-1.59	CC(C)[C@H](NC(=O)N1c2ccccc2NC(=O)[C@@H]1C(C)C)C(=O)N[C@@H](Cc1c[nH]c2ccccc12)C(=O)O
1.16	-0.03	O=C(NCCN1CCOCC1)c1cc(Cl)ccc1[N+](=O)[O-]
1.09	-0.16	COc1ccc(C(=O)CSc2n[nH]c(C)n2)cc1[N+](=O)[O-]
0.67	-0.08	COc1ccc(N(CC(=O)Nc2ccc(C(C)C)cc2)S(=O)(=O)c2c(C)noc2C)cc1
0.32	-1.1	O=C(Nc1c2c(nn1-c1ccccc1)CS(=O)(=O)C2)c1ccccc1Br
0.09	-0.17	CCC(=O)NNc1nc2c(C)cccc2s1
1.05	0.19	C/C(=N\NC(=O)c1cccs1)c1ccc2c(c1)OCO2
1.82	-0.88	CCCS(=O)(=O)N1CCC(C(=O)NCCCOCC)CC1

Among those listed so far, three contain a nitro group on carbon:
KCNQ2 pot	KCNQ2 pot baseline	SMILES
1.26	0.58	O=C1CN(C(=S)NC(=O)c2ccccc2[N+](=O)[O-])CCN1
1.16	-0.03	O=C(NCCN1CCOCC1)c1cc(Cl)ccc1[N+](=O)[O-]
1.09	-0.16	COc1ccc(C(=O)CSc2n[nH]c(C)n2)cc1[N+](=O)[O-]

More compounds:
KCNQ2 pot	KCNQ2 pot baseline	SMILES
0.21	-0.15	COc1ccc(-c2nc(C)c(C(C)=O)n2O)cc1[N+](=O)[O-]
3.12	-0.25	O=C(Cc1ccccc1Cl)N1CCOCC1
0.7	0.89	O=C(COC(=O)/C=C/c1ccc(C(F)(F)F)cc1)NCC1CCCCC1
0.74	0.61	COc1ccc(N2CCN(S(=O)(=O)CCNC(=O)COc3ccccc3OC)CC2)cc1
